Mtb hypoxia rep: Mtb hypoxia fluorescent reporter inhibition; M. tuberculosis hypoxia-regulated fluorescent reporter, fluorescence; fluorescence inhibition, % (no concentration beside the values); actives 0.1% (n = 300,000); AID 1159583;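 active = 35 to 45% if threefold the growth effect, above 45% if 1.5-fold the growth effect; inactive = the rest, general growth blockers included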;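 note: wells of about 50 µL received 100 nL stock; 0% = vehicle wells and 100% = reference inhibitor wells; whole bacteria with a GFP reporter of the hypoxia response; strong numbers were not always called active; many hits fall short of the cut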
Bead autofluor: counter-screen for toxin protease inhibitors: compound fluorescence | AID 624483 | compound autofluorescence counterscreen, microsphere flow cytometry; active compounds read high | actives 3.1% (n = 360,000) | fluorescence intensity (concentration not given with the values);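 active = at least 3 SD above the mean of all compounds, about 16000 in these data; inconclusive = too few beads counted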;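 note: 100 nL of 1 mM stock went into each well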
ugtP null kill: compounds lethal to S. aureus RN4220 ugtP deletion mutant. actives 0.54% (n = 330,000). growth inhibition, % (concentration not given with the values). OD600 growth, 16 h; some inactives read as strong as hits. AID 1259309;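 active = z-score under -3 and OD600 up to 0.15 on both plates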;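 note: plate controls were untreated wells for no effect and antibiotic for full effect; wells of about 80 µL received 100 nL stock; the first replicate is given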
PrP UTR inh: suppresses PrP 5' UTR mRNA reporter expression; cell-based PrP 5' UTR mRNA reporter, plate reader; inhibition, % (no concentration beside the values); actives 0.35% (n = 340,000);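 active = every replicate at 50% or more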;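 note: 0 = median of the neutral control wells; tested in H4 reporter cells; numbers are from one replicate; inactives centre near -14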
BJeLR lethal: kills HRASV12-expressing BJeLR cells. actives 0.17% (n = 300,000). inhibition, % (test concentration not listed). BJeLR (HRASV12) viability, CellTiter-Glo ATP luminescence, 48 h; reference of the scale not given here;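 active = replicate mean above 50%; inconclusive = above 50% but judged a plate artefact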;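 note: 50 nL library stock added to about 25 µL; numbers are from one replicate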
Sa RN4220 lethal: S. aureus RN4220 growth inhibition | OD600, 16 h | inhibition, % (no concentration beside the values) | actives 0.33% (n = 330,000) | AID 1259311;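 active = z-score of -3 or lower and OD600 up to 0.18 on both plates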;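 note: plate controls were untreated cells for no effect and reference antibiotic for full effect; stock transfer was 100 nL into about 80 µL; one replicate is shown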
Mtb hypoxia rep growth: further read-out of Mtb hypoxia rep, marked with its call; growth inhibition, %; measured here: M. tuberculosis growth (absorbance);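 0% = vehicle and 100% = reference antibiotic; read after six days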
Starred values were filed as active, the others as inactive; u = inconclusive; x = not tested or not shown. This is a random part of the collection; any-hit rate near 4%.

Screens in order – Mtb hypoxia rep	Mtb hypoxia rep growth	Bead autofluor	ugtP null kill	PrP UTR inh	BJeLR lethal	Sa RN4220 lethal
#1 C/C(=N\OC(=O)c1c(-c2c(F)cccc2Cl)noc1C)c1nccs1
  x	x	4015	x	-13	6	x
#2 CC(=O)N(c1cccc(C(F)(F)F)c1)c1nc(/C=C/C(=O)O)cs1
  2	-7	4330	5	0	24	3.7
#3 CN(c1ccccc1)S(=O)(=O)c1cccc(C(=O)Nc2ccc3c(c2)CCC3)c1
  -2	4	9782	-12	-19	1	3.4
#4 COc1ccc(N(C)C(=O)c2ccc3snnc3c2)cc1
  6	7	6852	-3	-25	8	-4.0
#5 CNC(=O)CCSSCCC(=O)NC
  7	-2	4394	7	-18	-5	3.4
#6 Cc1ccnc(NC(=O)CCC(=O)N(CC(=O)NCc2ccc(F)cc2)CC2CCCO2)c1 (configuration not stated)
  1	-6	4822	15	-3	0	3.0
#7 Cc1cc(N2C(=O)c3ccc(C(=O)NCc4ccccc4)cc3C2=O)no1
  4	-2	17357*	7	-9	x	4.7
#8 Cn1c(=O)c2c(nc(SCCNS(=O)(=O)c3ccccc3)n2C)n(C)c1=O
  -1	4	10548	-1	-21	6	2.4
#9 CCOc1ccc(CN(C)C(=O)c2ccc3c(c2)NC(=O)C(C)S3)cc1OC (configuration not stated)
  4	7	3352	6	-6	x	6.0
#10 N#Cc1ccc(S(=O)(=O)NCC(=O)OCC(=O)NCCc2ccccc2)cc1
  7	-2	5510	12	3	12	2.3
#11 Cc1c(C(=O)c2ccc(F)cc2F)c2ccccn2c1CCC#N
  x	x	4474	x	-5	0	x
#12 CSc1nnc(C)c(=O)n1COC(=O)COc1ccc(Cl)cc1Cl
  5	-7	4837	6	-19	-13	3.3
#13 N#CCCn1c(SCC(=O)Nc2ccc(N3CCOCC3)cc2)nc2ccccc21
  5	7	2185	0	-26	-2	1.6
#14 O=C(NC1CCCCCCC1)c1ccc2c(c1)OCO2
  x	x	3642	-3	-124	-5	-2.1
#15 C[C@H](CO)N1C[C@H](C)[C@@H](CN(C)S(=O)(=O)c2ccc(F)cc2)Oc2ccc(NC(=O)Nc3ccc4c(c3)OCO4)cc2C1=O
  3	15	3892	-3	-6	x	-1.8
#16 CCCCN(CCCC)S(=O)(=O)c1ccc(NC(=O)CN2CCOCC2)cc1
  -3	9	20756*	-1	-2	2	6.3
#17 COC(=O)c1c(C)[nH]c(C(=O)OCc2csc(CC(=O)Nc3ccccc3C)n2)c1C
  10	10	3621	2	-19	x	1.5
#18 COc1cc2c(cc1NC(=O)CSc1nnc(Cc3cccs3)n1Cc1ccco1)oc1ccccc12
  5	6	9704	-17	-32	-4	32
#19 Cc1c(Cl)cccc1NC(=O)CSCC(N)=O
  0	5	7846	-1	-23	-3	-0.1
#20 O=C(/C=C/c1ccco1)Nc1cccnc1Cl
  5	-5	3286	5	-82	3	7.5
#21 CCn1cc(C(=O)N[C@@H](C)C(=O)OC)c(=O)c2cc3c(cc21)OCO3
  4	5	3052	3	-2	10	2.8
#22 CC(=O)N1CCN(C(=O)CCc2nc3sc4c(c3c(=O)[nH]2)CCCC4)CC1
  9	12	4322	-2	-5	0	5.7
#23 Cc1ccc(OCCC(=O)OCC(=O)Nc2cc(C)cc(C)c2)cc1
  -3	-7	5609	4	-26	6	-0.2
#24 CC(C)Cn1c(SCC(=O)NCCCN2CCCC2=O)nc2ccccc21
  3	-2	u	3	-1	-10	4.6
#25 O=C1N(CC(=O)N2CCc3ccccc32)CCN1Cc1ccc(Cl)cc1
  x	x	4330	6	0	0	-5.6
#26 CC(=O)c1cccc(NC(=O)c2cc(Cl)sc2Cl)c1
  6	1	2419	4	-16	-11	2.0
#27 Cc1nn(Cc2ccc(C(=O)N3c4ccc(F)cc4CCC3C)o2)c(C)c1Br (configuration not stated)
  7	8	3274	-27	-19	-3	2.0
#28 C#CCOCCOCCOCCNc1nc(N2CCN(C(=O)Cn3cc(CCCCN)nn3)CC2)nc(N2CCN(C(=O)C(C(C)C)n3cc(CCO)nn3)CC2)n1 (configuration not stated)
  4	4	x	10	x	x	9.2
#29 O=C1N=c2ccccc2=C1c1c(O)n(-c2cccc(F)c2)[nH]c1=O
  9	10	2076	4	-15	8	5.2
#30 CCOCCCNC(=O)c1ccc(N(C)S(=O)(=O)c2ccc(OC)cc2)cc1
  2	3	11197	14	-20	x	2.8

Retrieved one by one from the entries so far:
Screens in order – Mtb hypoxia rep	Mtb hypoxia rep growth	Bead autofluor	ugtP null kill	PrP UTR inh	BJeLR lethal	Sa RN4220 lethal
#22 CC(=O)N1CCN(C(=O)CCc2nc3sc4c(c3c(=O)[nH]2)CCCC4)CC1
  9	12	4322	-2	-5	0	5.7
#18 COc1cc2c(cc1NC(=O)CSc1nnc(Cc3cccs3)n1Cc1ccco1)oc1ccccc12
  5	6	9704	-17	-32	-4	32
#4 COc1ccc(N(C)C(=O)c2ccc3snnc3c2)cc1
  6	7	6852	-3	-25	8	-4.0
#26 CC(=O)c1cccc(NC(=O)c2cc(Cl)sc2Cl)c1
  6	1	2419	4	-16	-11	2.0

The results go on.
Screens in order – Mtb hypoxia rep	Mtb hypoxia rep growth	Bead autofluor	ugtP null kill	PrP UTR inh	BJeLR lethal	Sa RN4220 lethal
#31 O=C(CSC(=S)N1CCCCC1)c1c(F)cccc1F
  -15	0	5439	-7	-77	1	-2.1
#32 C=CCNc1nc2c(c(=O)[nH]c(=O)n2C)n1CC(O)COc1ccc2ccccc2c1 (configuration not stated)
  9	-2	3096	0	13	-4	6.0
#33 Cc1ccc(-c2[nH]c3ccccc3c2SCCNC(=O)c2cc3ccccc3oc2=O)cc1
  7	4	6700	6	-19	2	29
#34 Cc1cc(=O)oc2cc(OCC(=O)N3CCN(c4ccccc4)CC3)c(Cl)cc12
  0	7	5481	1	-7	3	2.1
#35 O=C(NCc1ccc2c(c1)OCO2)c1cc(-c2ccc(Cl)cc2Cl)on1
  x	x	2790	-3	-20	8	1.9
#36 CCCS(=O)(=O)c1c(S(=O)(=O)CCC)c2c(C)cccn2c1C(N)=O
  4	1	2488	-3	-15	-2	3.8
#37 COc1ccc(C(=O)NCC2CCCO2)cc1 (configuration not stated)
  -1	-6	2090	15	-22	-11	4.1
#38 O=C(CSc1nc2ccccc2c(=O)n1Cc1ccccc1)Nc1ccc(Br)cc1C(=O)O
  -2	-2	4589	99*	-9	-4	76
#39 Cc1cc2ccccc2cc(C)c1=O
  8	0	6448	8	-15	-7	4.1
#40 COc1ccc(C(=O)NNC(=O)CSc2nnc(-c3ccc(O)cc3)n2C)cc1
  x	x	3444	x	-17	2	x
#41 Cc1cc(NC(=O)CSc2ncn(-c3ccccc3)n2)no1
  x	x	2476	1	-20	4	1.0
#42 Cc1ccc(NC2=C(Cl)C(=O)OC2OC(=O)c2ccco2)c(C)c1 (configuration not stated)
  x	x	10069	x	-19	-2	x
#43 CSc1nc2n(n1)C(c1ccccn1)C1=C(CC(C)(C)CC1=O)N2 (configuration not stated)
  -4	-1	11244	-4	-18	1	1.0
#44 Cc1ccc(S(=O)(=O)NC2OC(=O)C(Cl)=C2Cl)cc1 (configuration not stated)
  x	x	4749	20	-23	-11	50
#45 CCOc1ccc(CCNC(=O)c2[nH]c(C)c(C(C)=O)c2CC)cc1OCC
  -2	4	2528	4	-24	-7	11
#46 CCn1cc(C(=O)N[C@H](C(=O)NCCCOC)C(C)C)c(=O)c2cc3c(cc21)OCO3
  -15	-13	3719	13	-26	16	2.5
#47 Cc1nn(CCC#N)c2nc(-c3ccccc3)cc(C(F)(F)F)c12
  x	x	2518	5	-27	-2	5.0
#48 Cc1ccc(CN2CC34C=CC(O3)C(C(=O)NCc3ccc5c(c3)OCO5)C4C2=O)cc1 (configuration not stated)
  7	7	9906	-2	-17	-15	3.4
#49 CSc1nnc([C@@H](N)Cc2c[nH]c3ccccc23)o1
  x	x	3260	x	-83	-9	x
#50 CCOC(=O)C1=C(C)NC2=C(C(=O)CC(C)(C)C2)C1c1ccc(N(C)C)cc1 (configuration not stated)
  -4	1	24751*	4	-10	1	4.3
#51 O=C(O)c1cccc(S(=O)(=O)N2CCC(n3nnc4cc(C(F)(F)F)ccc43)CC2)c1
  6	4	3328	3	-14	-17	-2.2
#52 Cn1c2ccccc2c(=O)c2cc(C#Cc3ccsc3)ccc21
  8	1	3469	-9	-41	-6	-7.3
#53 NS(=O)(=O)c1ccc(CCNC(=S)Nc2ccccc2)cc1
  x	x	1967	0	-13	-9	-3.1
#54 COC(=O)C(CCSC)NC(=O)C(NC(=O)C1CCC(C)CC1)C(C)C (configuration not stated)
  x	x	5044	4	-13	-2	0.8
#55 CCOc1cc(/C=N/NC(=O)CN(CCc2ccccc2)S(=O)(=O)c2ccc(NC(C)=O)cc2)ccc1O
  x	x	2514	x	-5	4	x
#56 Cc1cc(NC(=O)COC(=O)COc2ccc3c(c2)CCC3)no1
  -72	-7	7284	9	-22	-6	6.6
#57 O=C(c1cc2cc([N+](=O)[O-])ccc2oc1=O)n1cccn1
  -6	1	4073	9	-16	6	1.3
#58 C/C(=N\NC(=O)c1ccc(F)cc1)c1cccc(NC(=O)c2cccc(F)c2)c1
  x	x	6014	x	11	8	x
#59 Nc1nc(-c2ccccc2)nc(-c2ccccc2O)n1
  -85	-16	4208	1	-11	-6	2.0
#60 CC(=NNC(=S)NC1CCCCC1)c1cccs1
  7	10	x	9	x	x	9.5
#61 CCOC(=O)C1CCCN(S(=O)(=O)c2ccc(F)c(C(=O)Nc3ccc(F)c(F)c3)c2)C1 (configuration not stated)
  -4	2	5921	-4	-23	-6	2.8
#62 NC(=O)c1ccnc2c(O)cccc12
  -6	2	4052	-2	-5	x	-1.2
#63 COc1cc(NC(=O)COc2c(C)cc(C)cc2[N+](=O)[O-])c(OC)cc1Cl
  2	9	1951	-1	-8	-9	-0.4
#64 CC(O)c1nc2ccc(Cc3ccc4nc(C(C)O)[nH]c4c3)cc2[nH]1 (configuration not stated)
  4	6	2526	-7	-9	-3	2.5
#65 CC(C)(C)c1ccc(CN2N=Nc3ccccc3S2(=O)=O)cc1
  x	x	3303	14	-10	5	11
#66 COCCOC(=O)c1[nH]c2c(c1C)C(=O)CC(c1ccc(N(C)C)cc1)C2 (configuration not stated)
  x	x	5030	-5	-91	1	-4.3
#67 COc1cccc(-c2ccc3ncnc(NCc4cccs4)c3c2)c1
  -9	-2	2891	0	8	x	-7.7
#68 O=C(C[n+]1cc(-c2ccc(Cl)cc2)n2c1CCC2)N1c2ccccc2Sc2ccccc21
  1	21	2730	-14	-23	1	11
#69 O=c1oc(-c2ccco2)nc2c1cnn2-c1ccccc1
  x	x	4749	6	-6	2	4.2
#70 CC(NC(=O)COC(=O)Cc1ccsc1)c1ccccc1 (configuration not stated)
  4	6	2411	6	-19	6	5.6
#71 COC(=O)C(Cc1ccc(O)cc1)NC(=O)C(CC(=O)OC(C)(C)C)NC(=O)OC(C)(C)C (configuration not stated)
  x	x	1965	x	-10	18	x
#72 COc1ccc(NC(=O)c2cc(-c3ccncc3)nc3ccc(Br)cc23)cc1OC
  3	7	5653	-2	0	-1	-0.4
#73 COc1ccc(C(CNC(=O)Cc2ccc(Cl)c(Cl)c2)N(C)C)cc1 (configuration not stated)
  11	4	4443	-2	-12	16	3.6
#74 CC(=O)NC1CCC(C(=O)O)(c2ccccc2)C1 (configuration not stated)
  15	14	3012	-3	-17	2	-11
#75 Cc1nc2cc(-c3cccc(F)c3)nn2c(C)c1CCC(=O)N1CCN(c2ccccn2)CC1
  7	1	4310	16	4	-11	4.1
#76 Cc1cc2oc(=O)cc(CN(C)Cc3ccccc3F)c2cc1Cl
  -5	10	3807	-15	-23	-11	0.6
#77 COC(=O)/C=C/c1ccc2c(c1)OCO2
  1	5	4508	-3	-6	-2	0.1
#78 COc1ccccc1N1CC(C(=O)Nc2ccc(S(=O)(=O)N3CCCC3)cc2)CC1=O (configuration not stated)
  -7	0	4008	-5	1	x	-2.3
#79 Oc1ccc2ccccc2c1CNc1ccc2ccccc2c1
  4	6	2984	43	1	x	57
#80 Cc1ccc(S(=O)(=O)N(CC(=O)NCc2ccco2)C2CCCCC2)cc1
  11	12	11121	-1	-19	15	2.6
#81 COc1ccc(OC)c(NC(=O)CCNS(=O)(=O)c2ccc3[nH]c(=O)oc3c2)c1
  12	1	5169	1	-11	6	3.3
#82 CCOc1cc(NCc2ccccc2)c2ncn(C(C)C)c2c1
  9	5	3789	3	-33	x	10
#83 COc1ccc(C)cc1NC(=O)CSc1nnc2ccc(-c3cccnc3)nn12
  0	0	4695	7	-4	4	4.7
